From PubChem BioAssay
Vaccinia Venus – qHTS for Stage-Specific Inhibitors of Vaccinia Orthopoxvirus: Venus Reporter Primary qHTS | Vaccinia virus Venus reporter expression, fluorescence | Potency, µM (doses to about 36.5 µM), without a hit: at the top dose activity change, negative = inhibition, usual class: inhibitors | 330,000 compounds, 0.46% hits; active means well fitted inhibition curve with a large enough effect; inconclusive means small, poorly fitted or top-dose-only effect; inactive means no such curve, though single readings can be large or run the other way; tested in A549 cells; further: nearly all actives have a fitted effect of over 30% in size; inactives centre near -10
Vaccinia mCherry – qHTS for Stage-Specific Inhibitors of Vaccinia Orthopoxvirus: mCherry Reporter Primary qHTS; Potency, µM (top dose mostly 36.5 µM), for inactives: at the top dose activity change, negative = inhibition, hits mostly inhibitors; 310,000 compounds, 0.63% hits; Vaccinia virus mCherry reporter infection, fluorescence; about a quarter of the inactives have no number; active = well fitted inhibition curve with a large enough effect; inconclusive = small, poorly fitted or top-dose-only effect; inactive = no such curve, though single readings can be large or run the other way; tested in A549 cells; further: nearly all actives have a fitted effect of over 35% in size; inactives centre near -10
The depositor's hits bear a star; i = inactive; ? = inconclusive; · = not tested or not shown; & = joins results of further samples; [ ] = remark or other dose. On the % scale 0 is the no-effect control and ±100 the full control effect; potency means the concentration at half of the fitted maximal effect.

SMILES	Vaccinia Venus	Vaccinia mCherry
CCOc1ccc(OCCC(=O)OC(C)C(=O)Nc2ccc(Cl)cn2)cc1 (centres undefined)	-9%	-16%
Brc1ccc(-c2noc3c2-c2nc(-c4ccccc4)sc2CC3)cc1	-6%	-12%
Cc1ccc(C(=O)OC(C)CN2C(C)CCCC2C)cc1 (centres undefined)	-15%	i
Cc1sc2ncnc(NCCCn3ccnc3)c2c1C	-3%	-8%
CCOC(=O)c1c(C)oc2ncnc(Nc3cccc(C(F)(F)F)c3)c12	-2%	3%
O=C(COc1ccc2ccccc2c1)Nc1cccnc1Cl	-2%	-8%
C[C@H](O)CNC(=O)c1[nH]cnc1C(=O)Nc1cccc(Cl)c1	-24%	-22%
CCCCN(C)CCNC(=O)CCNC(=O)Cn1ccc2ccccc2c1=O	-5%	-4%
CCOC(=S)SCC(=O)Nc1ncc(C)s1	-15%	?
CCc1nc2c(OCCn3cccc3)cccn2c1N(C)C(=O)c1ccco1	-10%	i
CCOc1ccccc1CNc1ncnc2c1nc1n2CCCC1	-6%	i
Cc1ccc(S(=O)(=O)NCCCCCC(=O)Nc2c(C)n(C)n(-c3ccccc3)c2=O)cc1	-16%	-7%
O=C(CSc1nnc2ccc(-c3ccccn3)nn12)Nc1ccc(F)cc1F	-4%	-10%
COc1cc(-c2noc(CN3CCN(c4ccccc4)CC3)n2)cc(OC)c1OC	3%	-18%
COCc1c(C(=O)N2CCN(Cc3nc4ccccc4s3)CC2)oc2ccccc12	-27%	-18%
O=C(NCCc1ccc(Cl)cc1)C1CCN(c2ncccn2)CC1	-2%	-4%
Cc1ccc(SCc2nc(-c3ccc(C(=O)NCc4ccccc4Cl)cc3)oc2C)cc1	-14%	-15%
Cc1cc2oc(=O)cc(CSc3nc(N)cc(N)n3)c2cc1C(C)C	-25%	-24%[1.46 µM]
CNC(C)(C)Cc1ccccc1	-11%&-5%	-12%&-14%
COc1cc(C2(c3ccc(O)c(OC)c3)C(=O)N(C)c3ccc(C)cc32)ccc1O	12%	?
Cn1c(SCC(=O)Nc2cccnc2Cl)nnc1-c1ccco1	3%	-11%
Cc1ccc(S(=O)(=O)Nc2ccncc2)c(C)c1	-8%	i
OCc1ccc(-c2ccccc2)c(-c2ccccc2)c1	1%	-27%
Cn1c(SCC(=O)NCC2CCCO2)nc2c([nH]c3ccccc32)c1=O (centres undefined)	-18%	i
Cc1ccccc1OCC(=O)N/N=C/c1cccc2cccnc12	?	-25%

Shown with values under each structure: 6 of the compounds above
Values run as follows: Vaccinia Venus, Vaccinia mCherry
COc1cc(C2(c3ccc(O)c(OC)c3)C(=O)N(C)c3ccc(C)cc32)ccc1O
 : 12%, ?
COCc1c(C(=O)N2CCN(Cc3nc4ccccc4s3)CC2)oc2ccccc12
 : -27%, -18%
Cc1ccccc1OCC(=O)N/N=C/c1cccc2cccnc12
 : ?, -25%
CCOc1ccc(OCCC(=O)OC(C)C(=O)Nc2ccc(Cl)cn2)cc1 (centres undefined)
 : -9%, -16%
Cc1ccc(S(=O)(=O)NCCCCCC(=O)Nc2c(C)n(C)n(-c3ccccc3)c2=O)cc1
 : -16%, -7%
OCc1ccc(-c2ccccc2)c(-c2ccccc2)c1
 : 1%, -27%

Remaining list, next part.
SMILES	Vaccinia Venus	Vaccinia mCherry
COc1ccc(C(=O)NCC2(c3ccccc3)CCOCC2)cc1	3%[7.34 µM]	i[7.34 µM]
COc1ccccc1CNC(=O)c1cc(S(=O)(=O)N2CCCC2)cn1C	-14%	i
O=c1c(Cl)nc2cc(Cl)ccc2n1CCNc1ncc(C(F)(F)F)cc1Cl	2%	-14%
CCN(CC)C(=O)C1=C(C)N(CCC2=CCCCC2)C(=O)C(CC(=O)NCCN2CCOCC2)C1 (centres undefined)	-11%	i
CC(C)c1cc(Cn2c3ccccc3c(=O)n2C(C)Cn2cc(C3CC3)nn2)on1 (centres undefined)	2%	-12%
Cc1cccc(C)c1NC(=S)Nc1ccccc1C(=O)NCc1ccco1	-13%	i
CN1OC[C@@H]2CN(C(=S)NCCc3ccccc3)[C@H](c3ccc(N4CCCCC4)cc3)C[C@@H]21	8%	0%
CCCn1c(C)nc2cc(Cl)c(N3CCN(c4nc(-c5ccc(C)cc5)cs4)CC3)cc21	?	?
O=C(/C=C/c1ccc(Cl)cc1Cl)NCCN1CCOCC1	-8%	-19%
O=C(NCc1cccnc1)c1ccc(Cn2cc(C(F)(F)F)ccc2=O)cc1	-16%	-3%
Cc1cccc(-c2noc(CN(C)C(=O)c3ccoc3C)n2)c1	-5%	i
O=C(NC(=S)NCc1ccccc1)C1CCCCC1	-9%	·
COc1cc2c(cc1OC)C1Cc3ccc(OC)c(OC)c3CN1CC2 (centres undefined)	-12%&19%	7%
COc1ccc(C2=NN(C(=O)c3ccncc3)C(c3ccccc3O)C2)cc1 (centres undefined)	-11%	-6%
Cc1ccc(CCNC(=O)C23C[C@H]4C[C@@H](C2)CC(n2nnc(C)n2)(C4)C3)cc1	6%	i
COc1ccc(NC(=S)NC(NC(=O)c2ccccc2Cl)C(Cl)(Cl)Cl)c([N+](=O)[O-])c1 (centres undefined)	-22%	-10%
NC(=O)c1cc(S(=O)(=O)N2CCCC2)ccc1OCCOc1ccccc1F	-15%	-14%
CC1(C)NC(=O)N(CC(=O)Nc2nc(-c3ccc(F)cc3)cs2)C1=O	-13%	-12%
O=C1OC[C@H]2CCCN2C(=O)[C@@H](CC(=O)N(CCO)Cc2ccccc2)C/C=C\C[C@@H]1Cc1ccc(F)cc1	?	?
Cc1ccc(NC(=O)[C@@H]2CCCN2S(=O)(=O)c2ccccc2C(F)(F)F)cc1S(=O)(=O)N1CCOCC1	-16%	-7%
Fc1ccc(Sc2ccccc2CNC2=NCCN2)cc1	?	?
COC(=O)C(CC(C)C)NC(=O)C(N)Cc1ccccc1 (centres undefined)	-5%	-12%
O=C(COc1cccc(F)c1)N1c2ccccc2Sc2ccccc21	-8%	i
CCO[C@@H]1OC(C(=O)N2CCN(C)CC2)=C[C@H](c2coc3ccccc3c2=O)[C@H]1CCCO	-7%	-12%
Cc1cc(-c2nnc(SCc3cccnc3)o2)no1	-13%	-28%

Additional compounds follow:
SMILES	Vaccinia Venus	Vaccinia mCherry
COC(=O)c1ccc(Cn2c(C)c(C(=O)NCc3ccc(Cl)c(Cl)c3)sc2=O)o1	-4%	8%
COc1ccc(NC(=O)c2cccc(OC(F)F)c2)cc1Cl	-16%	-11%
c1ccc(N2CCOCCOCCOCCOCCOCC2)cc1	-9%	i
Cc1ccc2c(c1)c1c(c(=O)n(-c3ccccc3C)c(=O)n1CC(=O)NCc1ccccc1)n2C	-5%	-10%
CCCCNC(=O)COC(=O)c1ccc(Cl)c(S(=O)(=O)N2CCCC2)c1	-11%	-6%
Cc1cccc(N/C(N)=N/c2nc(C)cc(C)n2)c1	-19%	?
Cc1ccc([C@@H]2[C@@H]3C(=O)N(C)C(=O)[C@@H]3[C@]3(Cc4ccccc4)C(=O)N(Cc4ccccc4)CC(=O)N23)o1	-2%	i
CCOC(=O)NC(Nc1cc(C)ccn1)(C(F)(F)F)C(F)(F)F	-21%	·
O=C(c1ccco1)N1CCCN(Cc2cn[nH]c2-c2ccc(-c3ccccc3)cc2)CC1	-14%	-27%
O=C(OCCCN1CCCCC1)c1ccc(O)cc1	-8%	·
Cc1csc2nc(COC(=O)c3ccccc3NC(=O)c3ccccc3Cl)cc(=O)n12	-30%	-28%
CCCCCCCCN1C(=O)[C@H](CC(=O)N2CCN(C(=O)OCC)CC2)C[C@@]2(C(=O)OC)CCCCC=C12	-9%	-7%
COc1cccc(NC(=O)c2ccccc2N2C(=O)C3C4C=CC(C4)C3C2=O)c1 (centres undefined)	0%	-9%
CS(=O)(=O)N1CCN(C(=O)c2cc(-c3ccccc3)nc3ccccc23)CC1	-15%	-17%
CCOC(=O)C1CCCN(c2c(NCCCN(C)Cc3ccccc3)c(=O)c2=O)C1 (centres undefined)	-7%	?
O=c1[nH]c2nc(Cl)nc(Cl)c2[nH]1	0%	i
C[C@H](NC(=O)c1nc[nH]c1C(=O)N[C@@H](C)c1ccccc1)c1ccccc1	-16%	i
CCCn1c(N)c(N(CCOC)C(=O)COC(=O)c2ccccc2NCCO)c(=O)[nH]c1=O	-3%	-15%
CCOc1cc(C(=O)NCC(c2ccc(N(C)C)cc2)N2CCOCC2)cc(OCC)c1OCC (centres undefined)	-9%	-13%
Cn1cc(S(=O)(=O)N2CCc3ccccc32)cc1C(=O)NC(C)(C)C	-10%	i
N#C/C(=C(/O)c1ccc2c(c1)OCO2)c1nc2cc(C(F)(F)F)ccc2s1	-17%	i
Cc1onc(-c2ccccc2)c1C(=O)N1CCCCCC1	4%	-17%
COc1ccc(C/C(C)=N/NC(=O)c2cccnc2)cc1	-5%	0%
Cc1cccc(N2CCN(C(=O)c3cc4ccc5cccnc5c4[nH]3)CC2C)c1 (centres undefined)	-7%	-6%
Cc1cc(S(=O)(=O)N2CCOCC2)ccc1OCC(=O)Nc1ccc(F)cc1F	-1%	-11%

Reprinted from the part before: 4 compounds; new compounds follow.
SMILES	Vaccinia Venus	Vaccinia mCherry
Cc1onc(-c2ccccc2)c1C(=O)N1CCCCCC1	4%	-17%
COc1ccc(C/C(C)=N/NC(=O)c2cccnc2)cc1	-5%	0%
Cc1cccc(N2CCN(C(=O)c3cc4ccc5cccnc5c4[nH]3)CC2C)c1 (centres undefined)	-7%	-6%
Cc1cc(S(=O)(=O)N2CCOCC2)ccc1OCC(=O)Nc1ccc(F)cc1F	-1%	-11%
CCc1ccc(-c2[nH]nc3nc(-c4ccc(OC)cc4)cc(C(=O)NCCCOC)c23)cc1	1%	-21%
CCN(CC)CCNC(=O)/C(=C\c1cccn1C)NC(=O)c1cccs1	-11%	i
O=[N+]([O-])c1ccc2[nH]c(O)c(N=NC(=S)NCC3CCCO3)c2c1 (centres undefined)	-7%	-15%
O=C(Nc1nncs1)C12CC3CC(CC(C3)C1)C2	-11%	i
COc1cc(C(=O)OC(C)C(=O)NC2CCCCC2C)c([N+](=O)[O-])cc1OC (centres undefined)	-21%	-25%
COc1ccccc1OCc1ccc(C(=O)NC(C)c2ccccc2)o1 (centres undefined)	-23%	-15%
C[C@H]1CN([C@@H](C)CO)C(=O)CCCn2cc(nn2)CO[C@@H]1CN(C)C(=O)Nc1ccc(-c2cccs2)cc1	-8%	4%
CN1CCN(CCC(=O)N/N=C/c2cc3c(cc2[N+](=O)[O-])OCO3)CC1	-8%	-16%
COc1ccc(-c2nnc3n(CCc4ccccc4)c(=O)c4ccccc4n23)c(OC)c1	-3%	-11%
O=C(NCc1ccccc1Cl)C1CCN(S(=O)(=O)c2cccs2)CC1	-10%	i
Cc1cc(N(CC(=O)NC(C)C)S(C)(=O)=O)ccc1Br	-7%	-14%
COCCN1C(=O)C(O)=C(C(C)=O)C1c1ccc(F)cc1 (centres undefined)	-10%	·
COc1ccc(CCN(Cc2ccccn2)C(=S)Nc2ccccc2Cl)cc1OC	-8%	-11%
COC(=O)C[C@H]1CC[C@H](NC(=O)c2cccc(F)c2)[C@@H](CO)O1	-6%	-6%
CCCc1c(C)[nH]c2ccc(NC(C)=O)cc2c1=O	-2%	-14%
Cc1ccc2[nH]c(=O)cc(C(=O)OCC(=O)c3ccccc3)c2c1	-10%	-17%
O=C1CC2(CCN(C(=O)c3ccccc3[N+](=O)[O-])CC2)Oc2ccccc21	-9%	-20%
Cc1ccc(-c2cc(-c3ccc(C)cc3)[n+](-c3ccccc3)c(-c3ccc(C)cc3)c2)cc1	3.5µM*	?
O=C(NCC(=O)N1CCN(Cc2ccccc2)CC1)c1ccccc1Cl	-5%	i
O=C(c1cc(COc2ccc3ncccc3c2)on1)N1CCCCCC1	-30%	-15%
Cc1nn(C)c(N)c1C(O)(c1nccn1C)C(F)(F)F (centres undefined)	-6%	-8%
CC1CCN(C(=O)CSc2nnc(-c3ccccc3Cl)o2)CC1	5%	-9%
CCOC(=O)c1c(NC(=O)COc2cccc(C)c2C)sc(C(C)=O)c1C	-4%	-4%
CC(=O)N1CCc2c(sc3c2c(=O)n(-c2ccccc2)c(=O)n3CC(=O)Nc2cccc(C)c2)C1	-3%	-8%
COC(=O)c1ccc2nc(-c3ccccc3)c(Cc3ccc(OC)cc3C)n2c1	1%	-4%
O=C(COC(=O)c1ccco1)c1ccc(S(=O)(=O)N2CCCCC2)cc1	-14%	0%
CCNC(=S)NS(=O)(=O)c1ccc(Cl)cc1	-16%	·
COc1ccc(NC(=S)NCCc2ccc(Cl)cc2)c(OC)c1	-27%	?
